Compound activity (PubChem BioAssay)
GLA inh pH 4.5: alpha-galactosidase A (human) inhibition, pH 4.5; P06280; AID 1467; 230,000 tested, under 10 active; activity change, negative = inhibition, % at 105 µM; purified enzyme, 4-MU-alpha-Gal fluorescence, pH 4.5; inconclusive = small, poorly fitted or top-dose-only inhibition, or a rising curve; inactive = flat fitted curve, though single readings scatter; no compound was filed as active;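 note: 0% = full activity with enzyme and -100% = basal without enzyme; dose as in the result columns while the protocol names 77 µM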
Rango complex inh: inhibitors of Rango-importin beta complex formation. Q14974. Rango CFP/YFP FRET sensor + importin beta, 45 min. Potency, µM (series often up to 92.2 µM), for the others: top-dose inhibition of complex formation. 340,000 compounds, 0.031% hits; active = rising FRET ratio curve, often small or poorly fitted; inconclusive = mostly compound fluorescence or quenching in the first reads; inactive = flat curves in all reads;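 note: potency is the fitted concentration of half-maximal effect; 0% = DMSO wells and 100% = buffer wells lacking importin beta; nearly all actives have a fitted effect of over 15% in size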
Target sequence (Q14974 whole entry, looked up): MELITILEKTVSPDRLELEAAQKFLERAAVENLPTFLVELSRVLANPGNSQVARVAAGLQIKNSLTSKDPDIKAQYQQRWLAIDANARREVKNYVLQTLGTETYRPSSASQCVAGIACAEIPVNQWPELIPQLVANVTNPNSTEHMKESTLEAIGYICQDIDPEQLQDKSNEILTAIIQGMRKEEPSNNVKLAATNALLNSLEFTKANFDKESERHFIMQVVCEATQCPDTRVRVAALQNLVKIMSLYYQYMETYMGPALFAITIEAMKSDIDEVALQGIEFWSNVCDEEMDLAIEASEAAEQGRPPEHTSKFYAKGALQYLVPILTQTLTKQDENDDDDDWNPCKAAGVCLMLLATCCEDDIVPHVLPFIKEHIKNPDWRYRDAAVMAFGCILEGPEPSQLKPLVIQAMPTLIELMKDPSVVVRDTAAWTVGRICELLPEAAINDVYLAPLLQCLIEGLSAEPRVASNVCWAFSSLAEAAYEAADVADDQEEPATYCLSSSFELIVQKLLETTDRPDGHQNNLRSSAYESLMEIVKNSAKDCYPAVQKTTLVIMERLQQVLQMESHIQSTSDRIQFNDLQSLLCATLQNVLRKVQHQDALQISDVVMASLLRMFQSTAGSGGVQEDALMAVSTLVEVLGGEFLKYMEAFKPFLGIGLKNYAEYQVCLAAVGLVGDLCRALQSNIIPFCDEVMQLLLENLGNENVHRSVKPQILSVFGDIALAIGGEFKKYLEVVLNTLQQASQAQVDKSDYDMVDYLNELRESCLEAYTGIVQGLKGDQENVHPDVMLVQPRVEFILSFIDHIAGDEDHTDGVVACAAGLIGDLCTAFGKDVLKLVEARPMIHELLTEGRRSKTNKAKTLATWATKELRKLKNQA
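Inhibition scored from the CFP 486 nm/YFP 530 nm FRET ratio 45 min after adding 0.125 microM importin beta to 50 nM Rango biosensor preincubated 5 min with compound (room temperature, PBS with DTT, Tween-20, BSA). No-importin wells as positive control.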
miR-21 FLuc: raises the signal of a miR-21 reporter; Potency, µM (highest dose often 38.3 µM), for the others: at the top dose reporter change, positive = more light; HeLa miR-21 FLuc reporter, luciferase, 48 h; 340,000 tested, under 10 active; AID 2288; active = well fitted rising curve with a large enough effect; inconclusive = small, poorly fitted or top-dose-only effect; inactive = no such curve, though single readings can be large or run the other way;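 note: % of control where 0% means no effect; miR-21 action dims this reporter so a rising signal means less miR-21 action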
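Using DMEM plus 10% FBS, HeLa miR-21-FLuc cells are incubated with test compounds (final up to about 40uM) for 48 hours; firefly luciferase signal is then imaged following reagent-mediated lysis.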
Rango release inh: inhibitors of RanGTP-induced Rango-importin beta complex dissociation | Biochemical FRET Rango-importin beta, RanGTP-induced dissociation | Potency, µM (titrated, usually from 46.1 µM), without a hit: top-dose activity change, negative = inhibition | 340,000 compounds, 0.071% hits | O95149+P62826; active means falling FRET ratio curve, often poorly fitted, with flat reads before Ran was added; inconclusive means other falling curves, or compound fluorescence or quenching; inactive means flat or rising ratio curve;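 note: potency is the fitted concentration of half-maximal effect; % of control where 0% means no effect; nearly all actives have a fitted effect of over 45% in size; -100% = wells without RanGTP and RCC1; the record marks most hits as doubtful in a second field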
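Recombinant Rango FRET biosensor (EYFP–snurportin 1 IBB–cerulean CFP10) at 0.1 uM premixed with 0.25 uM importin beta in PBS, 1 mM DTT, 0.02% Tween-20, 0.1% BSA. Compound added 5 min; RanGTP-RCC1 (0.6 uM Ran, 2 mM GTP, 0.2 uM RCC1) then triggers release, read at 45 min.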
Starred values were filed as active, the others as inactive; ? = inconclusive; . = no result given. Some of the compounds tested; count on the stated rates, not on these rows.

SMILES	GLA inh pH 4.5	Rango complex inh	miR-21 FLuc	Rango release inh
CCN(C(=O)COC(=O)c1cccc(-n2cnnn2)c1)C1CCCCC1	-9	-0.1%	1%	3%
O=C(c1ccccc1)c1ccc2ccccc2c1	.	-1.5%	.	-2%
Cc1nn(Cc2ccc(C(=O)NC3CCCCC3)o2)c(C)c1Br	-5	2.6%	-2%	8%
CN(c1ccccc1)S(=O)(=O)c1cc(C(=O)N2CCN(c3ccccn3)CC2)ccc1Cl	-14	-0.1%	26%	10%
CCOC(=O)C1=C(CP(=O)(c2ccccc2)c2ccccc2)NC(=O)NC1c1ccc(Cl)cc1 (stereo not drawn)	-14	3.8%	1%	-2%
O=C(COc1ncnc2cc([N+](=O)[O-])ccc12)NCc1ccc2c(c1)OCO2	7	2.1%	-7%	18%
Cc1cccc(N2CCN(C(=O)c3cccs3)CC2)c1C	.	2.7%	0%	-1%
COc1ccc(NC(=O)Cn2nnc(-c3ccccc3F)n2)cc1	-5	-1.1%	-14%	-12%
COC(=O)C1=C(C(=O)c2ccc(C)cc2)C(c2ccc(O)c(OC)c2)n2nnnc2N1 (stereo not drawn)	-4	?	-7%	-12%
O=C(c1ccccn1)N1N=C2/C(=C/c3ccc(F)cc3)CCCC2C1c1ccc(F)cc1 (stereo not drawn)	?	8.0%	-10%	-4%
C/C(=N\NC(=O)c1cc(-c2ccc(C)s2)[nH]n1)c1ccncc1	.	0.6%	-21%	19%
CC(C)C1Oc2ccccc2N(CC(=O)N2CCOCC2)C1=O (stereo not drawn)	.	2.5%	-2%	-19%
CCCCn1nc2cc(C(=O)NCC34CC5CC(CC(C5)C3)C4)ccc2c1OC	7	2.7%	-8%	-6%
Cc1ccc(S(=O)(=O)N(C)C)cc1NC(=O)COC(=O)c1c(-c2ccccc2)noc1C	.	-0.5%	.	9%
CCC(=O)c1c[nH]c(C(=O)NCc2cccnc2)c1	5	-0.3%	5%	-4%
O=C(O)CC1Sc2ccccc2NC1=O (stereo not drawn)	2	0.9%	-4%	0%
CC(=O)Nc1ccc(S(=O)(=O)NC(CC(=O)O)c2ccc(C)cc2)cc1 (stereo not drawn)	-8	-4.0%	-3%	-1%
CCOC(=O)Cc1csc(NC(=O)c2cc3ccccc3o2)n1	2	-2.1%	-4%	-18%
COC(=O)C(C)n1cnc2c(nnn2-c2cccc(Cl)c2)c1=O (stereo not drawn)	8	-3.5%	-6%	1%
CC(C)(CO)CNC(=O)CCc1nnc(CCCc2ccccc2)o1	4	0.5%	-20%	-7%
Cc1cc(C)c2c(CC(=O)NC3CCS(=O)(=O)C3)coc2c1 (stereo not drawn)	.	0.4%	-2%	-13%
Fc1ccc(NC(=S)N/N=C/c2cccc(Br)c2)c(F)c1	5	5.0%	-27%	-13%
CC(C)N(C(=O)Cn1c(SCC(=O)Nc2nccs2)nc2ccccc21)C(C)C	-7	-1.6%	-10%	3%
Cc1ccc(CC2S/C(=N/N=C/c3ccco3)NC2=O)cc1 (stereo not drawn)	-2	0.5%	2%	0%
Cc1cc(Br)c(NC(=O)COC(=O)C2CC2C)c(Br)c1 (stereo not drawn)	-1	-0.5%	1%	0%
CN1CCN(c2nc(-c3ccccc3Cl)nc3ccccc23)CC1	.	-0.2%	-7%	2%
O=C(NNc1c2ccccc2nc2ccccc12)c1ccc(Cl)cc1	.	?	-1%	-22%
CN(CC(=O)OCC(=O)NC1CCCC1)S(=O)(=O)c1ccc(Cl)cc1	.	-2.3%	.	0%
O=C(NCCCN1CCOCC1)c1cn(-c2ccccc2)nc1-c1ccc(Br)cc1	.	-4.6%	.	?
CCOC(=O)C1CCCN(Cc2ccc3c(c2)OCO3)C1 (stereo not drawn)	-9	-1.1%	-3%	-11%
CCSc1nnc(NC(=O)CSc2nnc(Cc3cccn3C)n2-c2ccc(C)cc2)s1	-2	?	-6%	0%
Cc1cccc2cc(CN(Cc3ccc(F)cc3)C(=O)N3CCOCC3)c3nnnn3c12	2	-1.5%	-4%	1%
O=C(NCc1ccco1)c1ccc(Cn2c(=O)c3ccccc3n(Cc3cccc(F)c3)c2=O)cc1	0	0.8%	-12%	8%
Cn1nc(C(F)(F)F)cc1C(=O)Nc1ccc(Cl)cc1	-10	0.8%	?	0%
C=CCn1c(O)c(C(CC)=NCCN2CCOCC2)c(=O)[nH]c1=O	-13	-4.3%	-6%	1%
C#CCOCCOCCOCCNc1nc(N2CCOCC2)nc(N2CCN(C(=O)[C@H](CCCCN)n3cc([C@@H](N)CO)nn3)CC2)n1	-10	-0.1%	-1%	5%
Cc1ccccc1-c1nnc(SCC(=O)N(CC(C)C)c2c(N)n(CC(C)C)c(=O)[nH]c2=O)n1C	-1	3.7%	0%	3%
CC(=O)Nc1ccc(-c2ccc3nnc(C)n3n2)cc1	4	-0.4%	0%	-7%
O=C1C2C3C=CC(C3)C2C(=O)N1c1ccc(-c2nc3ccccc3c(=O)o2)cc1 (stereo not drawn)	-19	-1.6%	-2%	?
O=C(CN1CCOCC1)Nc1ccc(S(=O)(=O)N2CCCCCC2)cc1	-2	-0.1%	-2%	0%
CC(C)[C@H](NC(=O)NCc1ccco1)C(=O)O	4	-0.6%	2%	14%
Cc1ccc(C(=O)Cn2nc(C(=O)O)c3ccccc3c2=O)cc1C	5	-1.6%	-6%	20%
Cn1cc(Cl)c(C(=O)N(Cc2ccccc2)c2ccccn2)n1	7	-3.0%	1%	0%
Cc1cccnc1NC(=O)Cn1c(=O)oc2ccccc21	.	-1.6%	13%	-6%
O=C(NN(C(=O)c1ccccc1)c1ccccc1)c1ccccc1	-14	-0.7%	-2%	-10%
CCOC(=O)c1c(NC(=S)Nc2ccc(OCC)cc2)sc2c1CCN(C)C2	-8	?	-15%	?
Cc1ccc(-n2c(SCC(=O)NCCC3=CCCCC3)nc3n[nH]c(C)c3c2=N)cc1Cl	.	0.1%	8%	1%
COC(=O)c1cc(S(=O)(=O)Nc2cc(S(=O)(=O)N(C)C)ccc2C)oc1C	-1	-0.5%	-1%	1%
Cc1cccc(C)c1NC(=O)CN1C(=O)C2CC=CCC2C1=O (stereo not drawn)	.	0.5%	.	3%
CC1(C)Cc2c(sc3ncnc(NNC(=S)NCc4ccccc4)c23)CO1	-3	-1.3%	22%	6%
O=C(NC1CCCCC1)N1CCC(c2nc3ccccc3[nH]2)CC1	-3	1.2%	-12%	22%
COc1cc(CCC(=O)OCC(=O)Nc2ccccc2C#N)cc(OC)c1OC	8	-1.6%	2%	-16%
O=C(O)CCCC(=O)NNc1ncnc2ccccc12	-12	?	-1%	5%
C=CCNC(=S)NNC(=O)c1cccc2ccccc12	-2	-2.3%	-1%	9%
Cc1nc(SCc2cccc(C(=O)O)c2)nc2c1CCCC2	1	13%	12%	-8%
Cc1cc(N/N=C/c2ccncc2)nc2ccccc12	1	-0.5%	-80%	-12%
O=C(CSc1nccn1Cc1ccco1)Nc1ccccc1F	.	0.0%	-41%	6%
C=CCn1c(C)cc(C(=O)COc2ccc(C)nc2[N+](=O)[O-])c1C	-4	-3.6%	21%	26%
CC[C@@]1(C(=O)OC)N[C@H](CN(C)C(=O)NC(C)C)[C@@H]2C(=O)N(C)C(=O)[C@@H]21	.	-1.9%	.	18%
Cc1ccc(Cn2c(N3CCNCC3)nc3c2c(=O)[nH]c(=O)n3C)cc1	.	-4.5%	-4%	0%

Remaining list, next part.
SMILES	GLA inh pH 4.5	Rango complex inh	miR-21 FLuc	Rango release inh
Cc1ccc(S(=O)(=O)/N=C2/NC(=O)/C(=C/c3ccc(Br)o3)S2)cc1	-1	-5.2%	-11%	1%
Cc1ccc(C(=O)Nc2c(C#N)c(C)c(C)n2Cc2ccccc2)cc1	-3	-1.0%	5%	-10%
CC(=O)c1ccc(NC(=O)CN(c2c(C)cccc2C)S(C)(=O)=O)cc1	.	2.5%	-50%	-17%
CC1CCN(C2=NC(=O)/C(=C/c3cn[nH]c3-c3ccccc3)S2)CC1	-5	4.9%	-12%	-14%
CCN(C(=O)Cn1c([N+](=O)[O-])cnc1C)c1ccccc1	.	-1.0%	-3%	6%
CCOCCOc1cccc(C(=O)NC(c2ccccc2)C(C)C)c1 (stereo not drawn)	3	8.1%	-1%	-3%
COc1ccc(-n2ccc3ccccc32)cc1	.	2.7%	-13%	0%
CC1CCCC(CC(=O)O)(CC(=O)O)C1 (stereo not drawn)	1	?	-2%	12%
O=C(c1ccccc1)c1ccc(O)c(O)c1O	.	3.0%	.	-19%
Cc1cccc(C)c1N1C(=O)c2ccccc2C1=O	-1	-0.7%	2%	17%
O=C(COC(=O)c1ccccc1Br)NCC1CCCO1 (stereo not drawn)	.	1.1%	.	-11%
Cc1ccc(S(=O)(=O)N(CC(=O)N2CCC(C)CC2)c2ccccc2)cc1	8	-1.4%	-4%	10%
O=C(O)c1ccc(N=Nc2c(O)[nH]c3ccc(Br)cc23)cc1	.	?	-72%	?
Nc1nc(NCc2ccco2)nc(N2CCN(Cc3ccccc3)CC2)c1[N+](=O)[O-]	-13	-2.6%	9%	4%
CCn1c(SCC(=O)Nc2cccc(NC(=O)c3cccs3)c2)nnc1-c1ccncc1	-4	3.3%	4%	-8%
CCOC(=O)c1sc(N2C(=O)C(O)=C(C(=O)c3ccco3)C2c2ccc(C)o2)nc1C (stereo not drawn)	.	?	-15%	?
CCCCNC(=O)c1c[nH]c2ccc(S(=O)(=O)N3CCOCC3)cc2c1=O	-4	-0.3%	-1%	10%
O=C(NCC1CCCO1)c1ccc(NC(=O)c2cc(F)c(F)cc2Cl)cc1 (stereo not drawn)	.	0.9%	0%	0%
O=C(Nc1nc2c(Cl)ccc(Cl)c2s1)c1ccco1	6	8.0%	2%	-8%
O=C(CSc1nc2cc(Cl)ccc2s1)NC(=O)NCc1ccco1	1	-3.6%	-10%	-10%
COC(=O)[C@]1(Cc2ccccc2)N[C@H](c2ccc(-c3ccccc3)cc2)[C@@H]2C(=O)N(C)C(=O)[C@@H]21	.	2.8%	.	-14%
CSCCOC(=O)C1=C(C)NC(=O)NC1c1ccc2c(c1)OCO2 (stereo not drawn)	.	1.2%	-3%	-10%
COc1ccc(S(=O)(=O)N2CCCCC2)cc1NC(=O)CNc1ccccc1C(C)=O	.	?	.	-18%
CN(C)c1ccc(/C=N/NC(=O)C2CC2c2ccccc2)cc1 (stereo not drawn)	-2	-1.3%	0%	-10%
COc1ccc2c(c1)SCC(=O)N2C	2	-4.5%	-2%	-11%
CC1CCCCC1NC(=O)c1ccc(CNc2c(N3CCCC3)c(=O)c2=O)cc1 (stereo not drawn)	10	-2.4%	0%	11%
